hIAP block: human IAP inhibitors, primary screen, biochemical, luminescence, uHTS | Intestinal-type alkaline phosphatase (Homo sapiens), P09923 | purified IAP, CDP-Star luminescence, 30 min | inhibition, % at 10 µM | hit rate 0.12% among 330,000 | AID 2544, 2010;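 active = inhibition reaching a set limit with compound at 10 µM in the primary screen, cut at about 35% in these data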;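 also: plate controls were DMSO wells with enzyme for no effect and no-enzyme buffer wells for full effect; values of inactives mirror those of a sister screen read the other way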
Target sequence (P09923 whole entry, looked up): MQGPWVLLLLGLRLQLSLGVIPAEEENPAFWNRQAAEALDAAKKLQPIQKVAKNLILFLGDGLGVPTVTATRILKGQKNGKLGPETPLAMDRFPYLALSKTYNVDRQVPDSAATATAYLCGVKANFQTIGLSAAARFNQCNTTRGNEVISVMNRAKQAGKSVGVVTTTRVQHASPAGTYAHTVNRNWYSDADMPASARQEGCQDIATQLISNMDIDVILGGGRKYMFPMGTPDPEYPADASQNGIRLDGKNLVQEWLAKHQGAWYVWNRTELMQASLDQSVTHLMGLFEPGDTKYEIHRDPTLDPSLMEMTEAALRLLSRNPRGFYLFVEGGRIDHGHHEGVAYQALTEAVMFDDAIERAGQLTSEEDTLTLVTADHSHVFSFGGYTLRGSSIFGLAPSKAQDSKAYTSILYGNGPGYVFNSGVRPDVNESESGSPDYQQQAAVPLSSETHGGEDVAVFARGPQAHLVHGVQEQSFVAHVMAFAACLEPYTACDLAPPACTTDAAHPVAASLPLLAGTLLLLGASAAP
GRIN3A LBD mod: binders of NR3A ligand-binding domain, primary screen, biophysical, differential scanning fluorimetry, uHTS; hit rate 2.5% among 340,000; AID 1259313, 2017; NR3A LBD differential scanning fluorimetry, Tm shift; 0% = protein alone, 100% = glycine-bound protein; Tm shift relative to glycine control, % at 25 µM; Glutamate receptor ionotropic, NMDA 3A (GRIN3A) ligand-binding domain;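 active = melting temperature shift of at least 10% of the positive control shift, at one fixed dose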
beta cell repl: inducers of MIN6 beta-cell proliferation, primary screen, ATP luminescence, uHTS | MIN6 cells proliferation, ATPlite luminescence, 48 h; cells starved in 0.2% serum; 100% = growth in 10% serum | proliferation, % at 10 µM | hit rate 0.29% among 330,000 | AID 2380, 2010;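 active = compounds whose signal lies at least 3.5 SD above the mean of all wells on their plate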;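 also: 0% = DMSO-treated cells in low-serum medium and 100% = 10% serum control; some compounds called inactive have numbers as strong as hits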
mIAP act: activators of mouse IAP, primary screen, biochemical, luminescence, uHTS | muIAP, CDP-Star luminescence, 30 min; stronger effect = higher value; 1 = vehicle-only enzyme signal, 0 = enzyme-free wells | AID 2805, 2010 | hit rate 0.24% among 330,000 | activation factor at 10 µM;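 active = activation factor of at least 2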; also: the source names both 10 and 20 µM as test concentration; values of inactives mirror those of a sister screen read the other way
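System: Mouse IAP enzyme | Also added: CDP-Star substrate | Dosing: Compounds dispensed in DMSO | Schedule: 30 min enzyme-substrate-compound incubation at room temperature | Technique: Chemiluminescence readout | Control set: DMSO-only wells and no-enzyme negative control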
mIAP inh: inhibitors of mouse IAP, primary screen, biochemical, luminescence, uHTS. purified mouse IAP, CDP-Star luminescence, 30 min. inhibition, % at 10 µM. hit rate 0.2% among 330,000;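 active = inhibition of at least 40% at 10 µM in the primary screen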;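 also: plate controls were DMSO with enzyme for no effect and no enzyme wells for full effect; values of inactives mirror those of a sister screen read the other way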
A3G deaminase: APOBEC3G DNA deaminase inhibitors, primary screen, biochemical, fluorescence, single-stranded DNA substrate, uHTS | DNA dC->dU-editing enzyme APOBEC-3G (Homo sapiens), Q9HC16 | recombinant A3G, ssDNA deamination FAM/TAMRA fluorescence | inhibition, % at 20 µM | hit rate 0.28% among 330,000 | AID 493012, 2011;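 active = inhibition of at least 40% at 20 µM, with no more than 30% in the related APOBEC3A deaminase screen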;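 also: plate controls were DMSO wells with A3G for no effect and wells lacking A3G enzyme for full effect; some compounds called inactive have numbers as strong as hits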
A3A deaminase: APOBEC3A ssDNA deaminase inhibitors, primary screen, selectivity assay for APOBEC3G inhibitor project, biochemical, FAM/TAMRA oligo cleavage fluorescence. DNA dC->dU-editing enzyme APOBEC-3A (Homo sapiens), P31941. inhibition, % at 20 µM. hit rate 0.41% among 330,000. recombinant A3A, FAM/TAMRA ssDNA deamination fluorescence. AID 493011, 2011;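 active = at least 40% inhibition at 20 µM here, with at most 30% in a related deaminase screen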;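 also: plate controls were A3A with DMSO for no effect and wells lacking A3A enzyme for full effect; some results filed as inactive read as strong as hits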
Target sequence (P31941 whole entry, looked up): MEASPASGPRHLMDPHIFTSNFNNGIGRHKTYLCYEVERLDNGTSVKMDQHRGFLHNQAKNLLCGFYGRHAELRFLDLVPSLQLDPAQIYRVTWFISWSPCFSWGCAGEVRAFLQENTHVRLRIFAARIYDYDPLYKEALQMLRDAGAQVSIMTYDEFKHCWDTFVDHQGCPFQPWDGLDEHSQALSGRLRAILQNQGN
hIAP act: human IAP activators, primary screen, biochemical, luminescence, uHTS. Intestinal-type alkaline phosphatase (Homo sapiens), P09923. purified human IAP, CDP-Star luminescence, 30 min; stronger effect = higher value; 1 = vehicle-only enzyme, 0 = enzyme-free background. activation factor at 10 µM. hit rate 0.16% among 330,000. AID 2524, 2010;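 active = activation factor of the enzyme at least 2-fold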; also: the source names both 10 and 20 µM as test concentration; values of inactives mirror those of a sister screen read the other way
Active calls of the source: *; nt = not tested or not shown; & = joins results of further samples.

Sequence of screens: hIAP block, GRIN3A LBD mod, beta cell repl, mIAP act, mIAP inh, A3G deaminase, A3A deaminase, hIAP act
> CNc1oc(-c2cccc3ccccc23)nc1C#N
    -2, 1, 0, 1.1, -13, 5, 3, 1
> CC1CCc2c(nc3ncnn3c2Nc2ccc(OC(F)(F)F)cc2)C1 (centres undefined)
    -7, -13, -1, 1.1, -7, -2, 2, 1.1
> CCOC(=O)c1ccc(NC(=O)CSc2nc3c(c(=O)n2CC)SC(C)C3)cc1 (centres undefined)
    19, -1, -3, 1.1, -9, -6, -3, 0.81
> CCn1cc(C(=O)O)c(=O)c2cc(F)c(N3CCN(C)CC3)cc21
    3, -1, -3, 1, 0, -3, 1, 0.97
> O=C1OCC(c2ccccc2)=C1c1ccccc1
    14, -3, 0, 0.98, 2, -12, 2, 0.86
> CC(C)[N+]1(C)[C@@H]2CC[C@H]1CC(OC(=O)C(CO)c1ccccc1)C2 (some centres undefined)
    -2&11, -1&3&-3, 0&-1, 1&1.1, -3&-2, -5&2&3, -2&6&2, 1&0.96
> Cc1ccnc(NC(=O)CCC(=O)N(CC(=O)NC(C)(C)C)c2ccc3c(c2)OCO3)c1
    10, 1, 0, 0.94, 6, -6, 1, 0.9
> O=C(CNC(=S)N(CCCN1CCOCC1)Cc1cccs1)NCc1ccccc1
    -207, -2, 4, 1.1, -12, 0, -5, 3.1*
> CCN1CCN(C(=O)CS(=O)Cc2nc(-c3ccc(OC)cc3)oc2C)CC1 (centres undefined)
    0, -1, -3, 1.1, -7, -2, -1, 1
> O=C(Cn1c(C(=O)c2ccccc2)nc2ccccc21)c1ccc(Cl)cc1
    nt, -6, nt, nt, nt, nt, nt, nt
> Cc1cnc(C(=O)NCCc2ccc(S(=O)(=O)NC(=O)NC3CCCCC3)cc2)cn1
    3, -3, 4, 0.97, 2, -4, 2, 0.97
> O=C(NCc1ccccc1Cl)c1ccccc1Oc1ccccc1
    -6, 11*, 0, 0.98, 2, -8, -7, 1.1
> CC(=O)Nc1nc(CCN2C(=O)c3ccccc3C2=O)cs1
    8, 0, 4, 1, -3, -10, 4, 0.92
> CCN(c1ccccc1)S(=O)(=O)c1ccc(C(=O)NCC(c2cccs2)N(C)C)cc1 (centres undefined)
    -7, 0, -2, 1.1, -8, -10, -8, 1.1
> Cc1ccc(NC(=O)C2CCC2)cc1S(=O)(=O)N1CCCCCC1
    -10, -2, -2, 1.1, -9, 1, 4, 1.1
> COc1ccccc1NS(=O)(=O)c1cc(C(=O)N2CC(C)CC(C)C2)ccc1C (centres undefined)
    -12, -3, -4, 1, -2, -6, 2, 1.1
> CCCCn1c(N)c(N(Cc2ccccc2OC)C(=O)CN2C(=O)NC3(CCCC3)C2=O)c(=O)[nH]c1=O
    -8, -2, -4, 1, -1, 8, 35, 1.1
> COC(=O)c1ccc(N=C2S/C(=C\c3cc(C)n(-c4cccnc4)c3C)C(=O)N2C)cc1
    25, 0, -3, 0.89, 11, -5, -4, 0.75
> CC1C/C(=N/O)C(C)CN1 (centres undefined)
    -15, 5, -1, 1, -3, -6, -4, 1.1
> CC(Sc1nc2ccccc2s1)C(=O)N1CCOCC1 (centres undefined)
    -2, 3, -1, 0.94, 6, 1, 3, 1

15 of the compounds above, tab-delimited:
mol	hIAP block	GRIN3A LBD mod	beta cell repl	mIAP act	mIAP inh	A3G deaminase	A3A deaminase	hIAP act
CNc1oc(-c2cccc3ccccc23)nc1C#N	-2	1	0	1.1	-13	5	3	1
CC1CCc2c(nc3ncnn3c2Nc2ccc(OC(F)(F)F)cc2)C1 (centres undefined)	-7	-13	-1	1.1	-7	-2	2	1.1
CCOC(=O)c1ccc(NC(=O)CSc2nc3c(c(=O)n2CC)SC(C)C3)cc1 (centres undefined)	19	-1	-3	1.1	-9	-6	-3	0.81
CCn1cc(C(=O)O)c(=O)c2cc(F)c(N3CCN(C)CC3)cc21	3	-1	-3	1	0	-3	1	0.97
O=C1OCC(c2ccccc2)=C1c1ccccc1	14	-3	0	0.98	2	-12	2	0.86
CC(C)[N+]1(C)[C@@H]2CC[C@H]1CC(OC(=O)C(CO)c1ccccc1)C2 (some centres undefined)	-2&11	-1&3&-3	0&-1	1&1.1	-3&-2	-5&2&3	-2&6&2	1&0.96
Cc1ccnc(NC(=O)CCC(=O)N(CC(=O)NC(C)(C)C)c2ccc3c(c2)OCO3)c1	10	1	0	0.94	6	-6	1	0.9
O=C(CNC(=S)N(CCCN1CCOCC1)Cc1cccs1)NCc1ccccc1	-207	-2	4	1.1	-12	0	-5	3.1*
CCN1CCN(C(=O)CS(=O)Cc2nc(-c3ccc(OC)cc3)oc2C)CC1 (centres undefined)	0	-1	-3	1.1	-7	-2	-1	1
O=C(Cn1c(C(=O)c2ccccc2)nc2ccccc21)c1ccc(Cl)cc1	nt	-6	nt	nt	nt	nt	nt	nt
Cc1cnc(C(=O)NCCc2ccc(S(=O)(=O)NC(=O)NC3CCCCC3)cc2)cn1	3	-3	4	0.97	2	-4	2	0.97
O=C(NCc1ccccc1Cl)c1ccccc1Oc1ccccc1	-6	11*	0	0.98	2	-8	-7	1.1
CC(=O)Nc1nc(CCN2C(=O)c3ccccc3C2=O)cs1	8	0	4	1	-3	-10	4	0.92
CCN(c1ccccc1)S(=O)(=O)c1ccc(C(=O)NCC(c2cccs2)N(C)C)cc1 (centres undefined)	-7	0	-2	1.1	-8	-10	-8	1.1
Cc1ccc(NC(=O)C2CCC2)cc1S(=O)(=O)N1CCCCCC1	-10	-2	-2	1.1	-9	1	4	1.1

Going on with the list.
Sequence of screens: hIAP block, GRIN3A LBD mod, beta cell repl, mIAP act, mIAP inh, A3G deaminase, A3A deaminase, hIAP act
> C/C(=N/OC(=O)c1ccccc1)c1oc(C)nc1C
    4, 1, -2, 1, -2, -1, 0, 0.96
> CCOCCCNC(=S)NCCCNc1nc2c(C)c(C)ccc2cc1C#N
    nt, -2, nt, nt, nt, nt, nt, nt
> Cc1cccc(C(=O)NCCC(=O)Nc2ccc(C)c(F)c2)c1
    -5, -12, -4, 1, -3, -4, 0, 1.1
> CCc1ccc(OCc2nnc(SCc3ccc(C(=O)O)cc3)o2)cc1
    3, 1, -2, 0.95, 5, -2, 1, 0.97
> O=C(Nc1nc2ccccc2n1CCN1CCOCC1)c1ccc(Cn2cc([N+](=O)[O-])cn2)o1
    -18, -4, 1, 0.94, 6, -6, 0, 1.2
> CC/C(=N\n1nnnc1Nc1ccccc1)c1ccccc1
    -10, 1, 1, 0.95, 5, -2, -4, 1.1
> Cc1ccc(C(=O)CCC(=O)Nc2cccc(C(F)(F)F)c2)cc1
    7, 1, -4, 0.96, 4, -3, -3, 0.93
> CCC[C@@H]1C[C@@H](C(=O)N[C@@H](C2O[C@H](SC)[C@H](O)[C@@H](O)[C@H]2O)[C@H](C)Cl)N(C)C1 (some centres undefined)
    -25, -1, -3, 1.1, -13, 4, 1, 1.3
> COc1ccccc1NS(=O)(=O)c1cc(NC(=O)CCNC(C)=O)ccc1C
    4, -2, -2, 1, 0, -7, -2, 0.96

Arranged by value in A3A deaminase (falling): some entries from above
Molecule,A3A deaminase
CCC[C@@H]1C[C@@H](C(=O)N[C@@H](C2O[C@H](SC)[C@H](O)[C@@H](O)[C@H]2O)[C@H](C)Cl)N(C)C1 (some centres undefined),1
Cc1ccc(C(=O)CCC(=O)Nc2cccc(C(F)(F)F)c2)cc1,-3
CC/C(=N\n1nnnc1Nc1ccccc1)c1ccccc1,-4

This is a subset; the hit share may differ from the screen's.
